# Sfp PPTase inh: qHTS Assay for Inhibitors of Bacillus subtilis Sfp phosphopantetheinyl transferase (PPTase); 310,000 tested, 3.5% active; 4'-phosphopantetheinyl transferase ffp (Bacillus subtilis), Q9F4F7; Biochemical Sfp PPTase activity, qHTS; Potency, µM, inactives show max response, negative = inhibition, hits mostly inhibitors; active means well fitted inhibition curve with a large enough effect; inconclusive means small, poorly fitted or top-dose-only effect, or another doubt; inactive means no such curve, though single readings can be large or run the other way;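 further: the enzyme is Sfp with the accession as filed and its product quenches rhodamine fluorescence; potency means the concentration at half of the fitted maximal effect; 0% = enzyme reaction without inhibitor and -100% = no enzyme wells; top concentration of the series not given in the record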
#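 Fluorescence-quenching assay: 15 nM Sfp-PPTase preincubated 15 min at room temperature with compound, then 5 uM rhodamine-CoA and 12.5 uM BHQ-2-labelled YbbR peptide added. Fluorescence (ex 525/em 598 nm) read at start and after 30 min; difference gives rate.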
# gsp agonist: qHTS for Agonist of gsp, the Etiologic Mutation Responsible for Fibrous Dysplasia/McCune-Albright Syndrome: qHTS | gsp mutant cells, cAMP HTRF, 30 min; control for the full effect not named in the record | Potency, µM (highest dose often 76.9 µM), inactives show at the highest dose activation (cAMP increase), hits mostly activators | 340,000 tested, 0.13% active | AID 624287, 2012; active = well fitted activation curve with a large enough effect; inconclusive = small, poorly fitted or top-dose-only effect, or another doubt; inactive = no such curve, though single readings can be large or run the other way; cell line not stated here;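 further: phosphodiesterase inhibitor Ro 20-1724 added with compounds to block cAMP breakdown; potency means the concentration at half of the fitted maximal effect; nearly all actives have a fitted effect of over 60% in size; about a fifth of the inactives were tested at one dose only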
#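 Cells in DMEM/10% FBS with G418 were pretreated with compounds in DMSO plus […] (300 uM stock) for 30 min at 37C. cAMP was measured by HTRF (cAMP-d2 plus anti-cAMP antibody-K) after 30 min at room temperature.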
# Menin-MLL FL inh: qHTS Assay for Inhibitors Targeting the Menin-MLL Interaction in MLL Related Leukemias: Competition With Fluorescein Labeled MLL-derived Peptide; Fluorescence polarization, fluorescein-MLL peptide displacement from menin; FP activity change, % at 61.4 µM; 290,000 tested, under 10 active; inconclusive = falling polarisation curve, or a change in total fluorescence; inactive = total fluorescence flat and polarisation flat or rising; no compound was filed as active; the % refers to the polarisation; negative = inhibition;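 further: % of control where 0% means no effect; inhibitors lower the polarisation; unlabelled MLL peptide was the positive control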
# TRPV1 potentiator: HTS Assay for Compounds that Act as Potentiators of the Vanilloid Receptor 1 | TRPV1-expressing cells, Fluo-8 calcium influx, capsaicin EC20 potentiation; host cell line not named in the record; control for the full effect not named in the record | potentiation, % at 8.33 µM | 320,000 tested, 0.02% active | AID 540277, 2011; active means potentiation above 80%; inconclusive means 30% to 80%; inactive means below 30%; further: 0% is about no effect
#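 Cells expressing TRPV1 were dye-loaded with Fluo-8 and read kinetically: 10 s baseline, 3 min after compound (agonist portion), then 2 min after EC20 capsaicin (allosteric enhancer portion). Calcium-bound dye fluorescence at 480/520 nm.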
# D2 potentiator: Beta-Arrestin HTS for Positive Allosteric Modulators of the Human D2 Dopamine Receptor: Potentiators | D(2) dopamine receptor (Homo sapiens), P14416 | DiscoveRx D2 beta-arrestin cells, luminescence, 90 min; 100% = 57 uM dopamine signal | potentiation, % (no concentration beside the values) | 360,000 tested, 0.23% active | AID 624464, 2012; active = potentiation of 50% or more; inconclusive = 30% to 50%; inactive = 30% or less;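 further: compound concentration not given in the record; tested on top of an EC20 dose of dopamine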
# Target sequence (P14416 whole entry, looked up): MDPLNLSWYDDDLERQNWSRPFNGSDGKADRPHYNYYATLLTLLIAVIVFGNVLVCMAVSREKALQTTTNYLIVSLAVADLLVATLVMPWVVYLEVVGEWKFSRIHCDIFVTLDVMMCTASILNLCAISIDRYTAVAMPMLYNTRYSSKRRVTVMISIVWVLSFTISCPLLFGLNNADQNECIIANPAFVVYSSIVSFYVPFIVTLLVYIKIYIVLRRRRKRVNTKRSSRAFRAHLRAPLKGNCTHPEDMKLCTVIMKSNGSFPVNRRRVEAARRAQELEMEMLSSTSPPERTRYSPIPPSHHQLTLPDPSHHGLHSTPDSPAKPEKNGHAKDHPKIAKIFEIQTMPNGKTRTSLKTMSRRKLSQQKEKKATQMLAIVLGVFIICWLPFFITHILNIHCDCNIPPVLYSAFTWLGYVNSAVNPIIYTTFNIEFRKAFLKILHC
#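 PathHunter D2 cells, attached overnight at 37 deg C, received compound in DMSO plus dopamine at EC20 (50 nM final) for 90 min at 37 deg C. Beta-arrestin recruitment was read as luminescence after 1 h with detection reagent at ambient temperature.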
# ClpP mod: qHTS Assay for Activators of ClpP | ATP-dependent Clp protease proteolytic subunit (Bacillus subtilis (strain 168)), P80244 | purified B. subtilis ClpP, FRET peptide cleavage, 20 min | Potency, µM (titrated, usually from 57.5 µM), without a hit: at the highest dose activity change, negative = active | 340,000 tested, 1.9% active; active = well fitted falling curve with a large enough effect; inconclusive = small, poorly fitted or top-dose-only effect; inactive = no such curve, though single readings can be large or run the other way; further: potency means the concentration at half of the fitted maximal effect; the source files actives as falling curves though it sought activators and does not explain the sign; nearly all actives have a fitted effect of over 65% in size; many hits overshoot -100%
# Target sequence (P80244 whole entry, looked up): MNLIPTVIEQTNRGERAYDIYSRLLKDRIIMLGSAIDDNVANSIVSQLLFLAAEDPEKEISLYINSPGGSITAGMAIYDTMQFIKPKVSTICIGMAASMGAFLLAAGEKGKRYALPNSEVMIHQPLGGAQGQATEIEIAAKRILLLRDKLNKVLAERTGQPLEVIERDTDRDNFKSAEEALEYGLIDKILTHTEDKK
#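 Purified B. subtilis ClpP, 10 microg/mL final in Tris/HCl pH8 with KCl, BSA, glycerol and Tween-20, cleaved an Abz/nitrotyrosine-quenched decapeptide. Fluorescence (ex 320, em 430) was read at 0 and 20 min at room temperature. Delta was normalized to 5.8 microM ADEP and DMSO/no-enzyme controls.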
# gsp antagonist: qHTS for Antagonists of gsp, the Etiologic Mutation Responsible for Fibrous Dysplasia/McCune-Albright Syndrome: qHTS; AID 624288, 2012; 340,000 tested, 0.4% active; Potency, µM (series often up to 76.9 µM), without a hit: at the top dose activity change, negative = inhibition, usual class: inhibitors; gsp-mutant cells, cAMP HTRF, 30 min; control for the full effect not named in the record; active = falling curve of any shape with a large fitted effect; inconclusive = falling curve, mostly with a smaller effect; inactive = flat or rising curve; cell line not stated here;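 further: intracellular cAMP measured with PDE inhibitor Ro 20-1724 present during compound exposure; potency means the concentration at half of the fitted maximal effect; on the % scale 0 is the no-effect control and ±100 the full control effect; nearly all actives have a fitted effect of over 65% in size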
#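 Cells, 2000/well, grown 16–24 h in DMEM 10% FBS with 0.5 mg/ml G418, then compounds plus […] (300 uM addition stock), 30 min at 37C. cAMP read by HTRF (cAMP-d2 and anti-cAMP antibody-K in lysis buffer) after 30 min RT.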
# Starred values were filed as active, the others as inactive; ? = inconclusive; . = not tested or not shown; & = joins results of further samples; [ ] = dose if it differs, or a comment.
SMILES,Sfp PPTase inh,gsp agonist,Menin-MLL FL inh,TRPV1 potentiator,D2 potentiator,ClpP mod,gsp antagonist
Cc1cc(C)cc(NC(=O)N2CCNC(=O)C2CC(=O)Nc2cc(Cl)ccc2Cl)c1 (stereo not given),10%,-7%[15.4 µM],.,16,-9,?,-2%
S=c1[nH]nc(COc2cccc3ccccc23)n1Cc1ccccc1,7%,7%[15.4 µM],2.5,-2,-16,.,-5%
CSc1ccc(/C=C(\NC(=O)c2ccccc2)C(=O)NN)cc1,-11%,11%[15.4 µM],?,14,-8,.,10%
C/C(=N\NC(=O)c1ccncc1)c1cccnc1,-2%,?,-7.2,-21,-9,-0.1%,5%
COC(=O)CN(c1cc([N+](=O)[O-])ccc1OC)S(C)(=O)=O,1%,-12%[15.4 µM],-1.9,5,-1,.,3%
CCOc1ccc(S(=O)(=O)Nc2ccc(C(=O)N3CCC3)cc2)cc1,.,6%,.,8,-17,-3.9%,-6%
CCCn1c2ccc(C)cc2c2n[nH]c(=S)nc21,40µM*,?,-9.1,0,-26,-0.8%,3%
COc1ccc(-n2cnc3cc(NS(=O)(=O)c4ccc(C)cc4)ccc32)cc1,-13%,.,1.7,18,.,.,.
O=C(CSc1ccc([N+](=O)[O-])cc1)Nc1ccccc1N1CCOCC1,.,-15%,.,.,0,-0.4%,-4%
CN1CCOCCOc2ccccc2OCCOCC1,.,2%[15.4 µM],.,.,-5,0.2%,7%
COc1ccc(C(=O)NCCc2c[nH]c3ccccc23)cc1[N+](=O)[O-],3%,0%[15.4 µM],-1.0,30,-7,-1.6%,-19%
COc1ccc(-c2cc(COc3ccccc3)on2)cc1,-10%,-25%,-2.9,10,0,.,-7%
CC(C)OC(=O)CC(=O)CSc1nc2c(cc1C#N)CCC2,-21%,13%,3.2,12,3,43%,-5%
Cc1cc(=O)oc2cc(OCC(=O)NCc3ccncc3)ccc12,19%,12%,2.5,7,-2,22µM*,12%
O=C(Cn1c(=O)oc2cc(S(=O)(=O)N3CCCCCC3)ccc21)NC1CCCCC1,2%,-1%,-1.3,13,-2,-4.9%,-2%
O=[N+]([O-])c1cc([N+](=O)[O-])c(Oc2cncc(Cl)c2)cc1NC1CCCCCCC1,8%,1%,-0.3,17,-3,0.3%,2%
Cc1cccc(C(=O)c2ccccc2C(=O)O)c1O,20%,-70%[inhibitor],3.0,2,-5,-0.8%,-4%
Cc1ncsc1CCOC(=O)C1C2CC3CC(C2)CC1C3 (stereo not given),-9%,22%,1.4,-3,-7,.,-12%
O=C(O)CCCC(=O)Nc1ccc(C(=O)N2CCCCC2)c(Cl)c1,5%,0%,-1.7,-5,-5,-0.5%,12%
CC(C)(C)CC(=O)Nc1cc(S(=O)(=O)N2CCCCCC2)ccc1Cl,-4%,11%,.,-22,4,-3.3%,-1%
C#CC1(NC(=O)NC(=O)c2c(F)cccc2F)CCCCC1,-4%,-2%,-0.8,-15,-13,0.1%,12%
O=C(NCC(=O)N1CCN(S(=O)(=O)c2ccccc2)CC1)c1ccc(Br)o1,.,1%,.,2,-14,0.5%,-5%
COc1cc(NC(=S)N2CCC(C(N)=O)CC2)cc(OC)c1,?,0%,0.0,26,-15,-14%,7%
Cc1ccc2cc(C)c(SCC(=O)Nc3ccc(S(=O)(=O)N4CCCC4)cc3)nc2c1,2%,23%[15.4 µM],?,0,5,.,-18%
O=C(NC1CCN(S(=O)(=O)c2ccccc2)CC1)C1CCCCC1,7%,5%,3.6,-12,19,0.1%,2%
SMILES,Sfp PPTase inh,gsp agonist,Menin-MLL FL inh,TRPV1 potentiator,D2 potentiator,ClpP mod,gsp antagonist
CN(CCCNC(=O)COc1cc(=O)n(C)c2ccccc12)Cc1ccccc1,16%,20%,-0.3,14,-26,-5.6%,4%
Cc1csc(SC(C)C(=O)Nc2ccc3c(c2)OCCO3)n1 (stereo not given),3%,-33%[inhibitor],2.1,2,-7,-1.1%,-7%
COC(=O)[C@H]1C[C@@H]1[C@H](N)c1ccccc1,9%&18%,?,0.3&-1.3,-10,-11,0.1%,9%
CCOC(=O)N1CCN(C(=O)CSc2nnc(CNC(=O)c3ccccc3F)o2)CC1,17%,-35%[inhibitor],12,3,14,-22%,-4%
CN(C)c1nc(N2CCN(c3ccc(F)cc3)CC2)c(C#N)c(=O)o1,-8%,?,7.5,-12,-8,-15%,3%
CN1/C(=C\C(=O)C[n+]2cccc(C(N)=O)c2)C(C)(C)c2ccccc21,3%,-16%,7.8,-3,-5,.,-1%
Nc1ncnc2c1ncn2[C@@H]1O[C@H](CNCc2ccccc2OCc2ccc(Cl)cc2Cl)[C@@H](O)[C@H]1O,.,.,.,.,-4,2.0%,3%
COc1ccc(OC)c(CNC(=O)C2CCN(S(C)(=O)=O)CC2)c1,-1%,10%,-4.0,-3,-3,.,0%
CCOC(=O)[C@H]1[C@H]2COc3ccccc3[C@@H]2N2C(=O)c3ccc(C)cc3NC(=O)[C@@]12C,.,-2%,.,-4,-14,1.3%,?
O=C(Nc1cccc(F)c1)N1CC=C(n2c(=O)[nH]c3ccccc32)CC1,-4%,1%,2.4,-4,1,0.3%,-15%
CC(C)CCN1CCN(Cc2nc3c(s2)CCCC3)CC1CCO (stereo not given),15%,-5%[15.4 µM],-3.0,-1,-22,0.2%,18%
CCCCC1CCC(C(=O)NC2CCS(=O)(=O)C2)CC1 (stereo not given),16%,11%,-0.1,-8,-6,-2.1%,-9%
Cc1cc2c(=O)n(Cc3ccco3)c(SCC(=O)N3CCCc4ccccc43)nc2s1,-17%,28%,4.1,-6,-8,-1.0%,-5%
Cc1ccc(-c2ccc(C(=O)NCc3ccccc3)o2)c2ccccc12,?,29%,7.1,-14,2,4.0%,-15%
CCC(C(=O)NCc1cccc(C)c1)n1nc(C)c2c(C)n(-c3ccccc3)nc2c1=O (stereo not given),20%,-33%[inhibitor],.,9,2,-0.9%,-8%
COc1cccc(C2CC(c3cccc(NS(C)(=O)=O)c3)=NN2C(=O)c2ccccc2)c1OC (stereo not given),9%,-23%,11,?,1,-6.1%,-16%
COc1ccc(-n2c3c(cc(C(=O)NNc4ccccc4)c2=O)C(=O)CC(C)(C)C3)cc1,18%,-2%[15.4 µM],-3.3,21,-6,.,-15%
CCCNS(=O)(=O)c1ccc(-n2cnnn2)c(OC)c1,10%,-28%,1.5,3,-25,-3.3%,-7%
COc1ccc2nc(SCC(N)=O)cc(C)c2c1,3%,4%,4.4,5,-15,-4.4%,2%
O=C(O)c1cnn(-c2nc(-c3cccc([N+](=O)[O-])c3)cs2)c1C(F)(F)F,3%,25%,3.5,-12,0,0.3%,-36%
CCCc1[nH]n(-c2ccc(F)cc2)c(=O)c1C=NCC1CCCO1 (stereo not given),-2%,-56%[inhibitor],-0.9,-19,-7,1.0%,-4%
COC(=O)c1ccccc1NC(=O)CSc1ccc(C)cc1,-6%,?,-1.2,-6,0,0.6%,-8%
O=S(=O)(Cc1ccccc1)NC1c2ccccc2Oc2ccccc21,.,-2%[15.4 µM],.,.,-10,-1.2%,-13%
COc1ccc(OC)c(NC(=O)NC2CCCc3ccccc32)c1 (stereo not given),33%[activator],?,0.7,-1,-22,-1.2%,1%
CCOc1ccc(/C=N/NC(=O)c2cc3c(OC)cc(OC)c(OC)c3[nH]2)cc1,5%,?,7.9,16,-2,-7.8%,-35%
SMILES,Sfp PPTase inh,gsp agonist,Menin-MLL FL inh,TRPV1 potentiator,D2 potentiator,ClpP mod,gsp antagonist
CCOC(=O)C1CCN(S(=O)(=O)c2ccc3c4c(cccc24)C(=O)N3CC)CC1,.,?,.,.,-5,.,-6%
C=CCNC(=O)NC(=O)Cn1c(=O)c2c(ncn2CC)n(Cc2ccccc2)c1=O,10%,13%,-12,18,1,.,7%
CCOC(=O)C1=C(CN2CCc3ccccc32)NC(=O)NC1c1ccc(Cl)cc1 (stereo not given),-12%,16%,2.7,-10,-10,-2.4%,5%
CCOC(=O)Cc1csc(NC(=O)c2ccc(Cl)s2)n1,4%,-15%,1.0,?,-17,1.2%,-34%
Cc1nnc(NC(=O)CSc2nnnn2Cc2ccccc2)s1,-9%,13%,-1.5,2,11,-0.4%,-2%
O=C(CCc1cccc(Cl)c1)NC1CCCN(Cc2ccccc2F)C1 (stereo not given),10%,-13%,-2.6,-13,-8,.,0%
Cc1ccc(C2NCCS2)cc1 (stereo not given),-13%,6%,0.8,-18,-1,.,8%
O=C(CN1C(=O)CCC1=O)Nc1nc2c(F)cc(F)cc2s1,.,-8%,.,.,-4,-1.1%,1%
c1ccc2c3c(cc(N4CCOCC4)c2c1)OC1(N2CCOCC2)CCCCC1O3 (stereo not given),11%,?,-0.3,18,?,32µM*,3%
COc1ccccc1NS(=O)(=O)c1ccc(C)c(C(=O)NNC(=O)c2csc(N3CCOCC3)n2)c1,.,0%,.,.,-8,-5.5%,0%
COc1cccc(C(=O)Nc2cccc3c2ccc2cccn23)c1,20%,8%[15.4 µM],11,3,-2,.,-7%
O=C(CSc1nnc(COc2ccccc2Cl)o1)NC(=O)NCc1ccco1,-10%,16%[15.4 µM],4.4,1,-5,.,-2%
COc1ccc(-c2csc(Nc3ncccc3C)n2)cc1OC,-11%,1%,3.6,8,2,2.3%,?
CCOC(=O)c1ccc(N2C(=O)CC(N3CCOCC3)C2=O)cc1 (stereo not given),16%,-1%,0.7,13,-12,-0.4%,18%
CCOC(=O)N1CCN(C(=O)CCCCCn2c(=S)[nH]c3ccsc3c2=O)CC1,?,9%[15.4 µM],-3.7,4,-16,.,-62%
C=CCc1c(C)nc(C)nc1N/N=C/c1ccccc1,-11%,22%,0.5,11,-7,1.0%,-4%
